# PINK1 modulator = A Quantitative High throughput Screen to Identify Chemical Modulators of PINK1 Expression; actives 0.2% (n = 410,000); Potency, µM (series often up to 76.6 µM), for the others: at the highest dose activation (PINK1 increase), most hits filed as activators; PINK1 immunofluorescence, high-content cytometry, 24 h; active = well fitted activation curve with a large enough effect; inconclusive = small, poorly fitted or top-dose-only effect; inactive = flat fitted curve, though single readings scatter; cell line not stated here;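 further: potency means the concentration at half of the fitted maximal effect; % of control where 0% means no effect; nearly all actives have a fitted effect of over 65% in size; a mitochondrial uncoupler was the plate control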
#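 Fluorescence from anti-PINK1 antibody, together with nuclear and cell stains, was scanned on a laser-scanning cytometer. Before staining, stable-line cells were incubated 24 hours with compounds at 5 concentrations; primary antibody 12 h at 10 degrees C.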
# D2 agonist = Beta-Arrestin HTS for Positive Allosteric Modulators of the Human D2 Dopamine Receptor: Agonists; activation, % (concentration not given with the values); actives 0.084% (n = 360,000); DiscoveRx PathHunter D2 beta-arrestin, luminescence, 90 min; 100% = 57 uM dopamine signal; D(2) dopamine receptor (Homo sapiens), P14416; in the data active = activation above about 40%; inconclusive = about 15% to 40%; inactive = below about 15%; further: compound concentration not given in the record; the text of the record calls up to 30% inactive
# Target sequence (P14416 whole entry, looked up): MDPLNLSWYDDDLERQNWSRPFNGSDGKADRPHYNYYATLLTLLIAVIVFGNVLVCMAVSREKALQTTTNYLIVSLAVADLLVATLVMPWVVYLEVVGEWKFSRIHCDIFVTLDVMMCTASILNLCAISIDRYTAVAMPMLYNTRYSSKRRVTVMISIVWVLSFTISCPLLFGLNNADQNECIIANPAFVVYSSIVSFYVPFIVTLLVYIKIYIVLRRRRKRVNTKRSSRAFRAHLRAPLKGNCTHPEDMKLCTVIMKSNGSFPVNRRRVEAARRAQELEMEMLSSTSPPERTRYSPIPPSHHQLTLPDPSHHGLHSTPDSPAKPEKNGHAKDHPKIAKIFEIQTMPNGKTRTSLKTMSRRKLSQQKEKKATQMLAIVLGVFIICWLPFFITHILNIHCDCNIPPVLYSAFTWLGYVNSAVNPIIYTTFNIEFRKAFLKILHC
#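 DiscoveRx PathHunter D2 beta-arrestin cells (2,100/well) attached overnight, then compound-stimulated 90 min at 37 C in HBSS/10 mM HEPES/0.1% Tween-20 buffer; beta-galactosidase complementation read by luminescence after 1 h at ambient temperature. Dopamine 57 uM final (EC100) as control.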
# gsp ag = qHTS for Agonist of gsp, the Etiologic Mutation Responsible for Fibrous Dysplasia/McCune-Albright Syndrome: qHTS. gsp mutant cells, cAMP HTRF, 30 min; control for the full effect not named in the record. actives 0.13% (n = 340,000). AID 624287, 2012. Potency, µM (highest dose often 76.9 µM), for the others: top-dose activation (cAMP increase), usual class: activators; active = well fitted activation curve with a large enough effect; inconclusive = small, poorly fitted or top-dose-only effect, or another doubt; inactive = no such curve, though single readings can be large or run the other way; cell line not stated here;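 further: phosphodiesterase inhibitor Ro 20-1724 added with compounds to block cAMP breakdown; potency means the concentration at half of the fitted maximal effect; nearly all actives have a fitted effect of over 60% in size; about a fifth of the inactives were tested at one dose only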
#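 Cells stably selected in G418 were plated at 2000/well, grown 16-24 hr, then given compounds in DMSO with the PDE inhibitor […] (300 uM solution added) for 30 min at 37C; cAMP was read by HTRF.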
# Sfp PPTase inh = qHTS Assay for Inhibitors of Bacillus subtilis Sfp phosphopantetheinyl transferase (PPTase) | 4'-phosphopantetheinyl transferase ffp (Bacillus subtilis), Q9F4F7 | Biochemical Sfp PPTase activity, qHTS | Potency, µM, for the others: max response, negative = inhibition, most hits filed as inhibitors | actives 3.5% (n = 310,000) | AID 1490, 2009; active means well fitted inhibition curve with a large enough effect; inconclusive means small, poorly fitted or top-dose-only effect, or another doubt; inactive means no such curve, though single readings can be large or run the other way;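 further: the enzyme is Sfp with the accession as filed and its product quenches rhodamine fluorescence; potency means the concentration at half of the fitted maximal effect; 0% = enzyme reaction without inhibitor and -100% = no enzyme wells; top concentration of the series not given in the record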
#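 Buffer: 50 mM Hepes-Na pH 7.6, 10 mM MgCl2, 0.01% Nonidet P-40, 0.01% BSA. Enzyme 15 nM, pre-exposed to compound 15 min; substrates then added and fluorescence change tracked over 30 min.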
# Menin-MLL FL inh = qHTS Assay for Inhibitors Targeting the Menin-MLL Interaction in MLL Related Leukemias: Competition With Fluorescein Labeled MLL-derived Peptide | Fluorescence polarization, fluorescein-MLL peptide displacement from menin | FP activity change, % at 61.4 µM | 290,000 tested, under 10 active | AID 1766, 2009; inconclusive = falling polarisation curve, or a change in total fluorescence; inactive = total fluorescence flat and polarisation flat or rising; no compound was filed as active; the % refers to the polarisation; negative = inhibition;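 further: % of control where 0% means no effect; inhibitors lower the polarisation; unlabelled MLL peptide was the positive control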
# gsp antag = qHTS for Antagonists of gsp, the Etiologic Mutation Responsible for Fibrous Dysplasia/McCune-Albright Syndrome: qHTS; gsp-mutant cells, cAMP HTRF, 30 min; control for the full effect not named in the record; Potency, µM (top dose mostly 76.9 µM), for inactives: at the top dose activity change, negative = inhibition, actives largely listed as inhibitors; actives 0.4% (n = 340,000); AID 624288, 2012; active = falling curve of any shape with a large fitted effect; inconclusive = falling curve, mostly with a smaller effect; inactive = flat or rising curve; cell line not stated here;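 further: intracellular cAMP measured with PDE inhibitor Ro 20-1724 present during compound exposure; potency means the concentration at half of the fitted maximal effect; on the % scale 0 is the no-effect control and ±100 the full control effect; nearly all actives have a fitted effect of over 65% in size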
#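 HTRF cAMP measurement after 30 min RT detection following 30 min, 37C compound treatment alongside […] (added as 300 uM solution) in G418-selected cells seeded at 2000/well and grown 16–24 h.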
# ClpP mod = qHTS Assay for Activators of ClpP; purified B. subtilis ClpP, FRET peptide cleavage, 20 min; actives 1.9% (n = 340,000); Potency, µM (doses to about 57.5 µM), without a hit: top-dose activity change, negative = active; active = well fitted falling curve with a large enough effect; inconclusive = small, poorly fitted or top-dose-only effect; inactive = no such curve, though single readings can be large or run the other way; further: potency means the concentration at half of the fitted maximal effect; the source files actives as falling curves though it sought activators and does not explain the sign; nearly all actives have a fitted effect of over 65% in size; many hits overshoot -100%
# Target sequence (P80244 whole entry, looked up): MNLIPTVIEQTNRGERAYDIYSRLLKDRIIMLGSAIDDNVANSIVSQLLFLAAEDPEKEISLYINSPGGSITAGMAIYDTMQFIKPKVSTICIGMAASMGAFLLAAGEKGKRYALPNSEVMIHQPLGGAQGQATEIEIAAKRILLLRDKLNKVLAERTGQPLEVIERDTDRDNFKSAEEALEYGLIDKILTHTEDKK
#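 Buffer: 100 mM Tris/HCl pH8, 100 mM KCl, 0.05% low protease BSA, 2.5% glycerol, 0.01% Tween-20. ClpP 10 microg/mL final; 20 min RT; delta FRET normalized to ADEP and DMSO controls.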
# * marks the source's active call; other numbers are inactive results; ? = inconclusive; / = no result given; & = joins results of further samples; [ ] = dose if it differs, or a comment. Compounds were not picked by outcome. Share with any hit: about 5.1%.
# Each structure is followed by: PINK1 modulator, D2 agonist, gsp ag, Sfp PPTase inh, Menin-MLL FL inh, gsp antag, ClpP mod
- Cc1cc(C(=O)NP(=O)(N2CCOCC2)N2CCOCC2)c(C)n1-c1ccc(N(C)C)cc1
→ 2.1%, 0.8, -2.5%, -17.5%, -4.1, -5.4%, /
- Cc1ccc(S(=O)(=O)N2C[C@H]3C(=O)C[C@@H](c4ccccc4)N(S(=O)(=O)c4ccc(C)cc4)[C@H]3C[C@H]2c2ccccc2F)cc1
→ 1.1%, -5.9, /, /, /, /, -3.6%
- Cc1cc(C)c(OCC(=O)N(Cc2ccccc2)C2CCS(=O)(=O)C2)c(C)c1 (stereo not drawn)
→ 4.2%, 2.7, 14.5%[15.4 µM], 12.0%, -2.5, -41.9%, 0.5%
- COC(=O)c1sc(NC(=S)NC(=O)c2ccccc2Cl)nc1C
→ 1.0%, -2.1, 0.8%, -4.4%, -25.1, -12.7%, -0.7%
- CCOC(=S)SCc1cn2cccc(C)c2n1
→ 0.2%, -0.6, 0.5%, ?, -3.1, 4.7%, 1.7%
- Cn1nnc(NC(=S)NC(=O)c2cccs2)n1
→ 0.9%, -12.6, -15.7%, -71.3%, 5.4, -3.8%, 35.2%
- CCN(CC)S(=O)(=O)c1ccc(Nc2cc(C)nc3ncnn23)cc1
→ 29.1%[38.3 µM], -0.3, ?, -10.4%, 3.0, 8.8%, -0.5%
- Nc1cccc2c3c(oc12)CCCC3
→ 6.1%, ?, -5.1%, -17.9%, 3.5, -7.0%, -0.4%
- CCOc1ccc(NS(=O)(=O)c2ccc3ncsc3c2)cc1
→ -1.4%, 7.9, -29.9%, -8.4%, -2.4, -0.5%, /
- CCn1c(SCC(=O)OC)nnc1-c1c[nH]c2ccccc12
→ 0.4%, -0.4, -40.8%[inhibitor][15.4 µM], 12.4%, 4.4, -1.1%, /
- Cc1ccccc1NC(=O)CSc1nc(-c2ccccc2)cc(=O)[nH]1
→ 1.4%, 0.3, -4.3%, 0.6%, -2.9, -19.4%, 1.6%
- O=C(N/N=C/c1cc2cc3c(cc2nc1Cl)OCO3)c1ccncc1
→ 0.7%, 5.0, -0.7%, 4.8%, 3.6, 1.4%, 3.9%
- N#Cc1ccc(CSc2nnc(NC(=O)c3ccc(=O)[nH]c3)s2)cc1
→ 3.5%, -0.3, 5.7%[15.4 µM], 2.4%, -2.0, -10.3%, /
- CCOC(=O)c1c(NC(=O)CN2CCN(C(=O)C3CCCO3)CC2)sc(C)c1C (stereo not drawn)
→ 1.5%, -2.7, -30.3%[inhibitor], -4.8%, -2.1, -20.6%, -3.8%
- Cc1ccc(N=C2CSC(=O)N2)cc1
→ -0.1%, 3.4, -2.5%, 12.2%, 1.5, -2.3%, /

# Other entries follow.
# Each structure is followed by: PINK1 modulator, D2 agonist, gsp ag, Sfp PPTase inh, Menin-MLL FL inh, gsp antag, ClpP mod
- CN1CCN(c2nc3ccccn3c(=O)c2/C=C(\C#N)S(=O)(=O)c2ccccc2)CC1
→ 0.4%, -8.9, 14.4%, 11.9%, -0.8, -6.2%, /
- C[C@@H]1CN([C@@H](C)CO)C(=O)CCCn2cc(nn2)CO[C@H]1CN(C)S(=O)(=O)c1ccc(Oc2ccccc2)nc1
→ 3.1%, -9.4, -70.2%[inhibitor], /, /, /, 2.5%
- CN1CCN(C(=O)C2(NC(=O)Nc3cccc(F)c3)CCCCC2)CC1
→ 0.4%, -2.3, 23.0%, 9.2%, 2.8, 0.5%, -2.5%
- Cn1c(Cc2csc(N)n2)nnc1SC/C=C/c1ccccc1
→ 6.1%, -0.7, -0.5%, 9.7%, 0.3, 2.1%, -0.7%
- CC1=NNC(=O)C1CCC(=O)N/N=C/c1ccco1 (stereo not drawn)
→ -1.0%, -2.1, -2.1%, 15.3%, 3.7, 4.2%, /
- O=C(NCc1ccccc1Cl)c1csc([C@@H]2O[C@H](CO)[C@@H](O)[C@H]2O)n1
→ 1.7%, -2.8, /, /, /, /, 0.2%
- CC(=O)N1CCN(C(=O)CCNC(=O)c2ccc(Br)cc2)CC1
→ 5.6%, -3.5, -7.8%[15.4 µM], /, /, 11.6%, /
- COc1cccc(NC(=O)CN2C(=O)NC(c3ccccc3)(c3ccccc3)C2=O)c1
→ 3.2%, -2.9, 3.4%[15.4 µM], 12.3%, -1.7, ?, /
- CC(C)OC(=O)N(C)C[C@H]1OCc2cnnn2CCCC(=O)N([C@H](C)CO)C[C@@H]1C
→ 2.8%, -8.2, -31.4%[inhibitor], /, /, /, -1.4%
- Cc1ccc(C(=O)NCCCNCCCN(C)C)cn1
→ 11.4%[38.3 µM], -2.8, ?, 23.4%, 1.9, 11.7%, -2.4%
- CCOC(=O)C1CCN(S(=O)(=O)c2ccc(-n3cnnn3)c(C)c2)CC1
→ 2.2%[38.3 µM], 1.8, -45.1%, -5.2%, 3.8, 3.2%, -2.3%
- CCOc1ccc(C(=O)NNC(=O)c2cc(C)oc2C)cc1
→ 0.0%, -3.6, 12.1%[15.4 µM], /, /, 6.7%, -2.1%
- CC1=CC(C)(C)N(C(=O)c2ccccc2)c2ccc(C)cc21
→ ?, -1.3, -24.8%, -10.9%, 3.0, -9.3%, -1.3%
- Cc1nn(-c2ccc(N3CCOCC3)nn2)c(C)c1CCC(=O)Nc1ccccc1
→ -0.9%, 3.9, -33.1%[inhibitor], 4.5%, /, 7.3%, -0.3%
- Cc1ccc(OCCn2cnc(Cl)c2Cl)cc1
→ 7.3%, -7.0, -1.7%[15.4 µM], 16.0%, 1.7, 18.2%, /

# Next part.
SMILES	PINK1 modulator	D2 agonist	gsp ag	Sfp PPTase inh	Menin-MLL FL inh	gsp antag	ClpP mod
CN1CCC(N(C)CC(C)(C)NS(=O)(=O)c2ccccc2)CC1	2.3%	-1.8	-35.6%[inhibitor]	11.7%	0.7	8.6%	1.3%
Cc1c(C)c2cc(Cl)c(O)c(CN3CCN(C)CC3)c2oc1=O	3.6%	-2.9	48.3%	1.2%	-1.6	12.9%	16.2%
O=C(Nc1ccc(F)cc1)C1CCCN(S(=O)(=O)c2cccc3cccnc23)C1 (stereo not drawn)	3.3%	-1.2	?	18.6%	3.9	-13.6%	-6.6%
CCN(CC)C(=O)[C@H]1C[C@H](CC(=O)NCC23CC4CC(CC(C4)C2)C3)C(=O)N2CCc3c([nH]c4ccc(Cl)cc34)[C@]12C	?	-2.4	/	/	/	-15.8%	-4.1%
CC(C)CN1CC[C@@]2(CCCN(C(=O)c3cc(C(F)(F)F)cc(C(F)(F)F)c3)C2)C1	0.2%	/	/	9.5%	10.6	/	/
Cc1ccccc1NC(=O)CCOc1ccccc1	1.1%&3.4%	-2.3	?	2.0%	0.0	-2.3%	-5.1%&1.5%
COc1cccc(CNC(=O)CN2C(=O)CSc3ccc(S(=O)(=O)N4CCCCC4)cc32)c1	3.2%	-3.6	4.0%	0.2%	-0.3	-13.8%	-0.1%
Cc1ccc(S(=O)(=O)Nc2ccc(S(=O)(=O)N3CCOCC3)cc2)cc1	2.3%	-0.8	-100.5%[inhibitor]	/	/	-9.2%	1.6%
CC(C)c1ccc(NC(=O)c2cc(S(=O)(=O)N3CCCC3)c[nH]2)cc1	-0.2%	-2.8	-3.6%	6.2%	4.1	-9.8%	0.9%
Cc1nc2ccc(NC(=O)C3CCN(S(=O)(=O)c4cccs4)CC3)cc2s1	-2.2%	-2.4	?	7.0%	2.8	?	-5.2%

# The results go on:
SMILES	PINK1 modulator	D2 agonist	gsp ag	Sfp PPTase inh	Menin-MLL FL inh	gsp antag	ClpP mod
Cc1cc(C)n2nc(C(=O)Nc3ccc(N4CCOCC4)cc3)nc2n1	-0.7%	-3.0	-23.6%	-6.9%	2.6	-14.3%	-0.3%
O=[N+]([O-])C(/C=C(\Cl)[N+](=O)[O-])=C1N(Cc2ccc(Cl)nc2)CCN1Cc1ccc(Cl)nc1	-1.5%[38.3 µM]	1.9	?	-3.2%	20.0	9.1%	-0.8%
CCn1c(COc2ccccc2C)nnc1SCC(=O)N1CCCCC1	-2.6%	-1.7	-28.4%	9.7%	-0.2	-3.4%	-1.6%
CCCCCC(=O)N1CCN(CCN=CC2=C(O)CC(c3ccc(OC)c(OC)c3)CC2=O)CC1 (stereo not drawn)	0.6%&1.6%	-3.6&-2.8	-9.8%&-7.2%	16.2%	4.5	-6.2%&2.6%	0.3%&-2.9%
